High-throughput results from PubChem.
nsP2pro primary: Primary qHTS for inhibitors of NSP2Pro chikungunya virus (CHIKV). Polyprotein P1234 (Chikungunya virus (strain S27-African prototype)), Q8JUX6. FRET peptide cleavage, nsP2pro, fluorescence 1 h. Potency, µM (doses to about 24.9 µM), without a hit: at the top dose activity change, negative = inhibition, usual class: inhibitors. 1.1% of 31,000 active. AID 1964107, 2024; active means well fitted inhibition curve with a large enough effect; inconclusive means small, poorly fitted or top-dose-only effect; inactive means no such curve, though single readings can be large or run the other way; also: nearly all actives have a fitted effect of over 60% in size; a reference inhibitor and vehicle were the controls
Target sequence (Q8JUX6 whole entry, looked up): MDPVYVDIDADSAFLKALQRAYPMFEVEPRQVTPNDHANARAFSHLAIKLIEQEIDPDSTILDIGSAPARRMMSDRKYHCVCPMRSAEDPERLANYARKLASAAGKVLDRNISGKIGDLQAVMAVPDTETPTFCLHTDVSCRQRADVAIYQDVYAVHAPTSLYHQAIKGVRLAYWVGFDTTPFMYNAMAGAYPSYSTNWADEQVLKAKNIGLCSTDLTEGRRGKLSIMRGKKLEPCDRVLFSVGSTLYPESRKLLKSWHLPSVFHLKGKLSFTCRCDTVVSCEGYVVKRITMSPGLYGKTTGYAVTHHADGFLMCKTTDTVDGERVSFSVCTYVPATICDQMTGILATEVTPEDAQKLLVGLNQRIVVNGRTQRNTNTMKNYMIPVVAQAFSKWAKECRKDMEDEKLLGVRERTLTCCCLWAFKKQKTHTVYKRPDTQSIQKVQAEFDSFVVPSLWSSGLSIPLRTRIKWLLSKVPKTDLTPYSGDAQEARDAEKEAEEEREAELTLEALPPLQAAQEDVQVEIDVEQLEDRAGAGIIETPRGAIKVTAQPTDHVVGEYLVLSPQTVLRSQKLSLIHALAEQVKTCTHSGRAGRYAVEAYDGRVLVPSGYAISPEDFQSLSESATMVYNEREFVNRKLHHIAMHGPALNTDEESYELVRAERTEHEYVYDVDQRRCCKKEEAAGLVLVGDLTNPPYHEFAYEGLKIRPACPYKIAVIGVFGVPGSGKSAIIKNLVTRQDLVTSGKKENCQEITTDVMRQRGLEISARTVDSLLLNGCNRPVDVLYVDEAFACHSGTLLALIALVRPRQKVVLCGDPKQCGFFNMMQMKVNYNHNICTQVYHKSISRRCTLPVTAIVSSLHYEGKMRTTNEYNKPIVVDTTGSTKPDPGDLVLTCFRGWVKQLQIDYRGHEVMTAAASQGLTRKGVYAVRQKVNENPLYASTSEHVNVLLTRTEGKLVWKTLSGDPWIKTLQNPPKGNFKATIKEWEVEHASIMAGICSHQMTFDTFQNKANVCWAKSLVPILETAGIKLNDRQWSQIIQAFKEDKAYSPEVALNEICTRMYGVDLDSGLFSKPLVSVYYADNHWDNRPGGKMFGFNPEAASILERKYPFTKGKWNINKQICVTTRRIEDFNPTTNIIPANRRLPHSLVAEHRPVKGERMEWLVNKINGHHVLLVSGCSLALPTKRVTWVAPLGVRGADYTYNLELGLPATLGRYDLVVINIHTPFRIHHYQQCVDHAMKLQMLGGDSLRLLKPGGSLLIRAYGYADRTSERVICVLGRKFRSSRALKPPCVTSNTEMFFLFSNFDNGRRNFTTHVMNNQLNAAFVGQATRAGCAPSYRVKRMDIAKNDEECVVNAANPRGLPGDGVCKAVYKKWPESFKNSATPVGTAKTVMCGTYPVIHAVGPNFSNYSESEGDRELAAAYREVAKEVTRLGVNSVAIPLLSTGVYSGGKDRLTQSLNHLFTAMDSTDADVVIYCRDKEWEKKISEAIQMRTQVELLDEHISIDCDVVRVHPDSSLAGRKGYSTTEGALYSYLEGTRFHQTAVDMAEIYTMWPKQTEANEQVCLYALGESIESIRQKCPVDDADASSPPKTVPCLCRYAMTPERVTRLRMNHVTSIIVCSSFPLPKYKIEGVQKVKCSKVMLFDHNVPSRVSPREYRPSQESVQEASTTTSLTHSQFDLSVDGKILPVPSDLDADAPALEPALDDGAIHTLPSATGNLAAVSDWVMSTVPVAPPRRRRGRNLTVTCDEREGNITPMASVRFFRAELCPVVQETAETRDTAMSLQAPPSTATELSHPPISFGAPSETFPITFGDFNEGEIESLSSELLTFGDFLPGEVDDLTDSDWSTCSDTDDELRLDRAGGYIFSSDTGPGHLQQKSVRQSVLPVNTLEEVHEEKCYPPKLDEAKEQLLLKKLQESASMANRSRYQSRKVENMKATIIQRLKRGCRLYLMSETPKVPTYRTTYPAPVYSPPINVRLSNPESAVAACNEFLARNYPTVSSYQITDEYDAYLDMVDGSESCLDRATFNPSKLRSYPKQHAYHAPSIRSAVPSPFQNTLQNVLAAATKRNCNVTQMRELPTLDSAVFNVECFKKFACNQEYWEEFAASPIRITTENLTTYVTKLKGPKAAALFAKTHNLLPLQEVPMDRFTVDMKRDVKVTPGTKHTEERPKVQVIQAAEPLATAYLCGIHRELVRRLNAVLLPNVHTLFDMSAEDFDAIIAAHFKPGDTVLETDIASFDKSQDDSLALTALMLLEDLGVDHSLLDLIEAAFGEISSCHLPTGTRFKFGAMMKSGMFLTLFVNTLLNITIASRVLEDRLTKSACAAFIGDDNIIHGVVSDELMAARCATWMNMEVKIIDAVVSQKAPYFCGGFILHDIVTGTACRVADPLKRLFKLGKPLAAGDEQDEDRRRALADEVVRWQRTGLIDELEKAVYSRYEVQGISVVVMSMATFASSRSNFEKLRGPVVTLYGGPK
* hit, by the source's call; i = inactive; ? = inconclusive; & = joins results of further samples; [ ] = remark or other dose. % is scaled to controls: 0 for no effect and ±100 for the full control effect; potency is read from the fitted curve at half-maximal effect.

Molecule | nsP2pro primary
C=C1C(=O)[C@@]23C(CC[C@@H]1[C@H]2O)[C@@]12CO[C@]3(O)[C@@H](O)[C@@H]1C(C)(C)CC[C@@H]2O (stereo partly drawn) | -1.3%
O=C(CCSCc1ccccc1Cl)N1CCN(c2cccc(Cl)c2)CC1 | -13.1%
Cn1c(SCC(=O)Nc2nc3ccccc3s2)ncc(C(=O)Nc2ccc(Cl)cc2)c1=O | -17.5%
CS(=O)(=O)c1ncc(Cl)c(C(=O)N(Cc2ccc(Cl)cc2)Cc2ccco2)n1 | 4.78µM*
COC(=O)[C@H](CCSC)NC(=O)c1ccc(NC[C@@H](N)CS)cc1-c1ccccc1 | ?
COc1ccc(OC)c(CCNC(=O)CN2C(=O)COc3ccc(S(=O)(=O)N4CCC(C)CC4)cc32)c1 | -10.9%
CC1CCN(C(=O)CSc2c(C(C)C)cnc3c2c(=O)n(C)c(=O)n3C)CC1 | -10.9%
Cc1ccsc1CN(C(=O)c1oc2ccc(F)cc2c1C)C1CCS(=O)(=O)C1 (stereo not drawn) | -14.2%
Cc1cc(NC(=O)c2cc(-c3ccc(Cl)c(Cl)c3)on2)n(-c2ccccc2)n1 | -21.1%
CCNC1(C(N)=O)CN(c2nc(C)nc3c(-c4ccc(Cl)cc4)c(-c4ccccc4Cl)nn23)C1 | -7.5%
CCOC(=O)N1CCc2c(sc3c2c(=O)n(CCc2ccccc2)c(=O)n3CC(=O)Nc2cccc(C)c2)C1 | -16.6%
Cc1cc(C)c2oc(-c3ccc(NC(=O)c4cc(Br)ccc4Cl)cc3)nc2c1 | -14.1%
CCN(CC)CCOc1ccc2nc(N(C)C)sc2c1 | -21.5%[39.2 µM]
COc1ccc(S(=O)(=O)Nc2ccc3c(c2)sc(=O)n3C)cc1Cl | -30.1%
CC(CNC(=O)CN1C(=O)COc2ccc(S(=O)(=O)N3CCCCC3)cc21)c1ccccc1 (stereo not drawn) | -7.9%

Filtered by structure: the compounds so far containing a Cl atom (7)
Molecule | nsP2pro primary
O=C(CCSCc1ccccc1Cl)N1CCN(c2cccc(Cl)c2)CC1 | -13.1%
Cn1c(SCC(=O)Nc2nc3ccccc3s2)ncc(C(=O)Nc2ccc(Cl)cc2)c1=O | -17.5%
CS(=O)(=O)c1ncc(Cl)c(C(=O)N(Cc2ccc(Cl)cc2)Cc2ccco2)n1 | 4.78µM*
Cc1cc(NC(=O)c2cc(-c3ccc(Cl)c(Cl)c3)on2)n(-c2ccccc2)n1 | -21.1%
CCNC1(C(N)=O)CN(c2nc(C)nc3c(-c4ccc(Cl)cc4)c(-c4ccccc4Cl)nn23)C1 | -7.5%
Cc1cc(C)c2oc(-c3ccc(NC(=O)c4cc(Br)ccc4Cl)cc3)nc2c1 | -14.1%
COc1ccc(S(=O)(=O)Nc2ccc3c(c2)sc(=O)n3C)cc1Cl | -30.1%

Next results follow:
Molecule | nsP2pro primary
CC(C)(C)OC(=O)NCCOCCOCCOCCn1ncc2c1CCCC2NC(=O)c1ccccn1 (stereo not drawn) | i
CC1(C)C=Cc2c(ccc3c2[N+]([O-])=C2C3(O)CC34NC(=O)C5(CCCN5C3=O)CC4C2(C)C)O1 (stereo not drawn) | -21.8%[10 µM]
CCN(CC)C(=O)C1=C(C)Nc2nc3ccccc3n2C1c1cccc(OC)c1 (stereo not drawn) | 1.9%
COc1cc2c(cc1NS(=O)(=O)c1cccc(C#N)c1)n(C)c(=O)n2C | ?
Cc1c(C(=O)N(Cc2ccc(N(C)C)cc2)CC2CCCO2)oc2ccc(Br)cc12 (stereo not drawn) | -23.8%
COC(=O)c1c(-c2cccs2)csc1NC(=O)COc1c(C)ccc(C)c1C | -25.2%
Oc1c(Cl)cc(Cl)cc1Sc1cc(Cl)cc(Cl)c1O | 81.7%[activator]
COc1cccc(C(=O)Nc2ccc([S+](=O)([O-])Nc3nccs3)cc2)c1O | i
COc1ccc(CCNS(=O)(=O)c2ccc3c(c2)c(=O)n(C)c(=O)n3C)cc1OC | -19.4%
CN(Cc1ccccc1)C(=O)[C@H]1C[C@@H](O)[C@H](O)[C@@H]2N=C(Nc3ccc(-n4cccn4)cc3)S[C@@H]21 | i
CCN(CC)CC(=O)Nc1c(C)cccc1C | 0.1%
CC(C)COc1ccc(C(=O)N2CCC(c3nc4ccccc4s3)CC2)cc1 | -25.4%
Cc1ccc(C(=O)Nc2cc3cc(Cl)ccc3oc2=O)cc1 | -11.7%
CC1(C)C(/C=C/C=C/C=C/C=C2/N(CCCCS(=O)(=O)O)c3ccc4ccccc4c3C2(C)C)=[N+](CCCCS(=O)(=O)[O-])c2ccc3ccccc3c21 | -3.8%
CCC(CC)C(=O)Nc1ccc(S(=O)(=O)N2CCC(c3nc4ccccc4s3)CC2)cc1 | -19.8%

Additional results:
Molecule | nsP2pro primary
CCOc1ccccc1CN1CCCOCCNC(=O)[C@@H]2CCCC[C@@H]21 | -0.5%
COc1ccc2c(Oc3ccc(NC(=O)c4c(C)n(CC(C)(C)O)n(-c5ccccc5)c4=O)cc3F)ccnc2c1 | 47.9%[activator]
CCCN1CCN(C(=O)Cn2c(-c3cccs3)cc3ccccc32)CC1 | -8.4%
O=C(Nc1ccc(N2CCOCC2)c(Cl)c1)c1ccc(Br)o1 | ?
CC1(C)O[C@@H]2C[C@H]3[C@@H]4C[C@H](F)C5=CC(=O)CC[C@]5(C)[C@H]4[C@@H](O)C[C@]3(C)[C@]2(C(=O)CO)O1 | 2.6%
CC[C@H]1CN2CCc3cc(OC)c(OC)cc3[C@@H]2C[C@@H]1C[C@H]1NCCc2cc(OC)c(OC)cc21 | -0.9%&-2.9%
O=C(Nc1nc(-c2ccccc2)cs1)c1ccncc1NS(=O)(=O)c1ccc2c(c1)CCC2 | i
Cn1c(=O)c(=O)n(C)c2cc(S(=O)(=O)Nc3ccc(Cl)c(C(F)(F)F)c3)ccc21 | -18.3%
CCc1cc2c(cc3c(=O)n(CC(=O)NC4CCCCC4)nc(CC)n32)s1 | -24.5%
Cc1cnc(CCNC(=O)c2n[nH]c(=O)c3ccccc23)n1C1CCCCC1 | i
CCOc1ccc(-c2cn(-c3ccc(OC)cc3)c(SCC(=O)Nc3ccccc3Cl)n2)cc1 | -4.6%
CCOc1ccc(-n2c(C)nc3cc(C(=O)NC4CCCC4)ccc32)cc1 | -7.9%
O=C(Cn1nc2n(c1=O)CCCC2)N1CCN(c2ccccc2)CC1 | 6.5%
CN1C(=O)N(c2cc(Cl)cc(Cl)c2)C(=O)[C@@]1(C)Cc1ccc(Br)cc1 | 10.2%
O=C1CC(c2nc3ccccc3n2CCCCOc2ccccc2)CN1c1ccccc1Cl (stereo not drawn) | 8.7%

(cont.)
Molecule | nsP2pro primary
O=C(NC1CCCCC1)c1ccc2c(c1)N(Cc1ccc(Cl)cc1)C(=O)c1ccccc1S2(=O)=O | -13.4%
CC(C)Cn1c(=O)n(C)c(=O)c2[nH]cnc21 | -12.3%
O=C(COc1ccccc1)NC1CCc2nnc(C3CC3)n2CC1 (stereo not drawn) | i
O=C(Nc1ccc2[nH]ncc2c1)C1CCC1 | 22.3%
CC(C)(C)CC(=O)N1CC[C@@H](CC(=O)O)[C@@H](CCN2CCN(c3ccccn3)CC2)C1 | -3.5%[39.2 µM]
COc1ccc(Cl)cc1N=C1NC(=O)CC(C(=O)Nc2ccccc2C(F)(F)F)S1 (stereo not drawn) | -9.8%
COCCN1C(=O)N(C)C(=O)C12CCN(Cc1cc(F)ccc1F)C2 (stereo not drawn) | 0.2%
COc1ncccc1-c1n[nH]c2c1CC(=O)N(c1ccccc1)C2 | 11.4%[39.2 µM]
CC(C)(C)c1cc(C(C)(C)C)c(NC(=O)c2c[nH]c3ccccc3c2=O)cc1O | 55.5%[activator]
CC(=O)O[C@H]1C[C@@H](O)C(C)(C)C2C[C@@H](OC(C)=O)[C@@]3(C)C4=CCC(C(CO)CC(O)C5OC5(C)C)[C@]4(C)CCC3[C@]21C (stereo partly drawn) | 16.9%[10 µM]
CCOC(=O)CSc1nc2ccccc2n2c(C)nnc12 | -10.4%
Cc1ccc(C2c3[nH]c4ccccc4c3CCN2C(=O)CCC2CCCC2)cc1 (stereo not drawn) | -8.2%
CC(=O)c1c(C)oc2c1cc(NS(=O)(=O)c1ccc(Br)cc1)c1ccccc12 | ?
CCN(C)C(=O)Oc1cccc([C@H](C)N(C)C)c1 | 9.9%
CCOC(=O)c1cccc(NC(=O)Nc2nnc(-c3ccncc3)s2)c1 | -6.2%

Other compounds
molecule,nsP2pro primary
O=C(Cc1nnc(-c2nc3ccccc3[nH]2)o1)Nc1cc(C(F)(F)F)ccc1Cl,i
CN(C)c1cc2c(cc1NC(=O)c1ccc(F)cc1)n(C)c(=O)n2C,-20.0%
O=C(Nc1ccccc1C(=O)O)c1ccccc1,i
COCCN1CC(C(=O)NCCOc2ccccc2)CCC1=O (stereo not drawn),1.6%
CCOc1cc(C2C(C(=O)OC)=C(C)NC3=C2C(=O)c2ccccc23)cc(Br)c1OCC (stereo not drawn),-15.0%
CCOc1cc(F)c(CCNC(=O)c2cc3sccc3n2Cc2ccccc2)cc1OCC,-4.1%
C=C(C)C(=O)OC1CC2(C)OC(=CC2=O)C(=C)CC2OC(=O)C(COC)C12 (stereo not drawn),3.6%
CCOc1ccc(C(=O)N2CCC(n3cc(-c4nc(CC)no4)nn3)C2)cc1 (stereo not drawn),3.6%
CC1CCN(C(=O)CC2Sc3ncccc3N(C)C2=O)CC1 (stereo not drawn),3.8%
Cc1ccc(CN2CCCCC23Cc2ccccc2CNC3=O)cc1C (stereo not drawn),-6.7%
C1CNCCN1,5.9%[39.2 µM]
Cc1cc(Nc2ccc(NC(=O)c3ccc(Nc4ccnc5ccccc45)cc3)cc2)nc(N)n1,-22.2%
CCOC(=O)C1CCN(C(c2ccc(SC)cc2)c2c(O)cc(C)n(Cc3ccco3)c2=O)CC1 (stereo not drawn),?
COC1C(=O)N(C2CCN(C(=O)c3cc(C)nn3C)CC2)C12CCOCC2 (stereo not drawn),i
COCCOc1cc(=O)n2c(c1C(=O)NCc1ccccc1)CCOCC2,-1.5%
CCCNC(=O)NCCn1c(C)cnc1-c1ccncc1,-5.3%
O=C(CN1CCOCC1)N1CCC(c2cc(N3CCCC3)ncn2)CC1,3.7%
Cc1cccn2c(=O)cc(COc3ccc(NC(=O)C(C)Oc4ccccc4)cc3)nc12 (stereo not drawn),-14.4%
CC(C)CCNC(=O)c1c2c(nc3ccccc13)C(=O)N(C1CCCCC1)C2,-14.9%
CN(C)S(=O)(=O)N1CCOCCNC(=O)[C@@H]2CCC[C@@H]21,-9.4%
CC1CN(C(=O)CCC(=O)NCc2cccs2)c2ccccc2O1 (stereo not drawn),-8.0%
CN1CCN(c2cccc(Nc3nn4c(=O)c5ccc(C(F)(F)F)cc5nc4s3)c2)CC1,-13.4%
CC(O)C(O)/C=C/C=C/C(=O)O[C@@H]1C=C2COC(=O)[C@]2(O)[C@@]2(C)CCCC(C)(C)C12 (stereo partly drawn),-4.9%[10 µM]
Cc1nc(N2CCCC2)c2c(C(=O)N3CCN(c4cccc(Cl)c4)CC3)c(C)oc2n1,-20.8%
Cc1ncc2n1C(=O)N(C1CCN(CC3CC3)CC1)C2,-0.6%[39.2 µM]

(more compounds)
molecule,nsP2pro primary
CCN(CC)C(=O)[C@@H]1CCC[C@@H](NC(=O)c2ccc(OC)cc2)CN(C)C(=O)C1,i
O=C(N[C@H]1CCN2C(=O)c3cc(-c4ccc(Cl)cc4)ccc3NC(=O)[C@H]12)C1CCCC1,i
CO[C@H]1C[C@H](O[C@@H]2[C@H](C)O[C@H](O[C@@H]3/C(C)=C/C[C@@H]4C[C@@H](C[C@]5(C=C[C@H](C)[C@@H](C6CCCCC6)O5)O4)OC(=O)[C@@H]4C=C(C)C(O)[C@H]5OC/C(=C\C=C\[C@@H]3C)[C@]54O)C[C@@H]2OC)O[C@@H](C)[C@@H]1O (stereo partly drawn),-11.2%
c1cc(CN2CCn3c(nnc3C3CCCNC3)C2)cs1 (stereo not drawn),?
Cc1nc(NC2CCCCC2)c2nc(-c3ccccc3)n(CCN3CCCCC3)c2n1,4.2%
COc1ccc(/C=C(\C)C2Nc3cccc4cccc(c34)N2)cc1,i
C=CCNc1oc(-c2ccc(-c3ccccc3)cc2)nc1C#N,-3.6%
COc1ccc(-c2noc(CNC(=O)c3ccc(OC)cc3OC)n2)cc1,-14.7%
CCOc1cccc2sc(N3CCN(C(=O)c4ccc5c(c4)CCCC5)CC3)nc12,-16.3%
C[C@@H]1O[C@@H](O[C@@H]2C=C3CC[C@@H]4[C@H](CC[C@]5(C)[C@@H](c6ccc(=O)oc6)CC[C@]45O)[C@@]3(C)CC2)[C@H](O)[C@H](O)[C@H]1O,-3.3%
Cc1nc(CN2CCOc3cc([S+](=O)([O-])Nc4ccccc4)ccc3C2)cs1,i
COc1ccc(CN(C)c2ccc(-c3nc(-c4ccc(OC)c(OC)c4)no3)cc2[N+](=O)[O-])cc1,-12.0%
COc1cccc(NC(=O)CCc2c(C)nc3ncnn3c2C)c1,-10.8%
C/C=C1/CN2CC[C@]34C(=Nc5ccccc53)[C@@H]2C[C@@H]1[C@H]4C(=O)OC,-0.4%
CCOc1ccc(CCNC(=O)c2ccccc2)cc1OCC,-3.8%
COc1ccc(C(=O)Nc2c(Cl)cncc2Cl)cc1OC1CCCC1,-3.6%
CC(C)c1noc(C2CCN(c3ncnc(Nc4ccc(S(C)(=O)=O)cc4F)c3[N+](=O)[O-])CC2)n1,-10.8%
CNCC(=O)OCc1cccnc1N(C)C(=O)OC(C)[n+]1cnn(C[C@](O)(c2cc(F)ccc2F)[C@@H](C)c2nc(-c3ccc(C#N)cc3)cs2)c1 (stereo partly drawn),14.4%
O=C(O)/C(S)=C/c1c[nH]c2ccc(F)cc12,11.1µM*
CC1(C)C[C@H]2C=C(C=O)[C@]3(C(=O)O)C[C@]3(C)[C@H]2C1,14.3%
Cc1ccc(CNC(=O)CCc2nc(C3CCCN3S(C)(=O)=O)no2)o1 (stereo not drawn),?

Not all compounds are listed; count on the stated rates, not on these rows.
